HSD17B inhib: qHTS Assay for Inhibitors of HSD17B4, hydroxysteroid (17-beta) dehydrogenase 4; 3-hydroxyacyl-CoA dehydrogenase type-2 (Homo sapiens), Q99714; recombinant HSD17B10, NADH fluorescence kinetic; many of its hits are not listed in these tables; Potency, µM (doses to about 57.1 µM), for the others: top-dose activity change, negative = inhibition, actives largely listed as inhibitors; 75,000 compounds, 7.6% hits; AID 893, 2007; active = well fitted inhibition curve with a large enough effect; inconclusive = small, poorly fitted or top-dose-only effect; inactive = no such curve, though single readings can be large or run the other way;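 also: the protocol describes HADH2 (HSD17B10) and not the HSD17B4 of the title; nearly all actives have a fitted effect of over 70% in size; most hits overshoot -100% by far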
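Enzyme plus compound, 15 min room temperature; substrate mix added (NAD+ 1 mM, beta-hydroxybutyryl-CoA 90 uM final); plates read kinetically for NADH fluorescence. HADH2 was His-tagged, E. coli-derived, 20 nM.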
Starred values were filed as active, the others as inactive; ? = inconclusive; [ ] = dose if it differs, or a comment. % is scaled to controls: 0 for no effect and ±100 for the full control effect; potency is read from the fitted curve at half-maximal effect.

SMILES | HSD17B inhib
CS(=O)(=O)N1CCC2(CC1)CN(Cc1cc(C(F)(F)F)cc(C(F)(F)F)c1)C2 | 8%
COCCn1c(SCC(=O)NCc2cccs2)nnc1-c1ccc(OC)cc1 | 6%
COC(=O)C1=C(CN2CCN(C)CC2)NC(=O)NC1c1cc(C)ccc1C (stereo not drawn) | -3%
NS(=O)(=O)c1ccc(NC(=O)CN2CCCCC2)cc1 | -1%
O=C(OCC(=O)N1CCN(C(=O)c2ccco2)CC1)c1ccccc1Cc1ccccc1 | -9%
COc1ccc(N2CCN(C(=O)CSc3ncnc4c3cnn4-c3ccccc3C)CC2)cc1 | 6%
COc1ccccc1NC(=O)C(CCS(C)(=O)=O)N1C(=O)c2ccccc2C1=O (stereo not drawn) | 15%
COc1ccc(N2CCN(c3oc(-c4ccco4)nc3C#N)CC2)cc1 | ?
COc1ccc2c(CC(=O)OCC(=O)N3CCc4ccccc43)coc2c1 | -10%
CC(C)(C)c1[nH]nc2c1C(c1cccnc1)C(C#N)=C(N)O2 (stereo not drawn) | -3%
CSCC[C@@H]1NC(=O)C/C=C\[C@@H](C)COC(=O)[C@@H](C)COC1=O | 2%[11.4 µM]
Cc1nn(-c2ccc(F)cc2)c2sc(C(=O)O)cc12 | -4%
COc1cccc(-c2nc(NC3CCNCC3)c3ccccc3n2)c1 | ?
COc1ccc(OCCn2c(=N)n(CCO)c3ccccc32)cc1 | 12%
O=C(CN1CCCCC1)Nc1cccc(Br)c1 | 1%
O=C(O)[C@@H]1[C@@H]2O[C@H]([C@@H](Br)[C@H]2Br)[C@H]1C(=O)O | 9%[11.4 µM]
CCOc1cc2c(cc1OCC)C(C(=O)O)C(c1cc(Br)c(O)c(OC)c1)N(C)C2=O (stereo not drawn) | ?
CCOC(=O)C1=C(CN2CCOCC2)NC(=O)NC1c1cc(C)ccc1C (stereo not drawn) | 2%
N=c1sccn1CC(=O)Nc1ccccc1Cc1ccccc1 | 4%
Cc1ccc(S(=O)(=O)N(Cc2cc3cc4c(cc3[nH]c2=O)OCCO4)CC2CCCO2)cc1 (stereo not drawn) | ?
C[C@@]1(C(=O)O)CCC[C@@H]1C(=O)O | 9%[11.4 µM]
CC(C)CC(c1nnnn1CCc1ccccc1)N1CCN(C(=O)c2ccco2)CC1 (stereo not drawn) | 6%
Cc1nc2ccccc2c2c1C(=O)N(C)C2=O | 8%
COc1ccccc1N1CCN(C(=O)C2c3ccccc3Oc3ccccc32)CC1 | 2%
CC(Cc1ccc(O)c(O)c1)(NN)C(=O)O (stereo not drawn) | 20µM*
O=C(c1c(Cl)cccc1Cl)N1CCN(c2ccccn2)CC1 | ?
O=C(CN1C(=O)NC2(CCCc3ccccc32)C1=O)N1CCN(C(=O)c2ccco2)CC1 (stereo not drawn) | 13%
OCC1CCCN(Cc2ccc(-c3ccccc3)cc2)C1 (stereo not drawn) | 0%
CC1(c2ccc3noc(-c4ccc(Cl)cc4)c3c2)OCCO1 | ?
Cc1cc2ccc(C)c(C)c2nc1SCC#N | -7%
COc1ccc(Cc2nnc3c4cnn(C)c4ncn23)cc1 | -1%
COc1ccccc1-c1cc(C(=O)NCc2ccc(Cl)cc2)no1 | -9%
CN(CC(=O)N1CCc2ccccc2C1)S(=O)(=O)c1ccc2c(c1)c(=O)n(C)c(=O)n2C | 0%
CCCNC(=O)OC[C@@H]1O[C@H](CCO/N=C(\C)CCN2CCCc3nc(C)c(C)cc32)C=C[C@@H]1Oc1ccc(OC)cc1 | -7%[11.4 µM]
OCCn1cnc2c(SCc3ccccc3)ncnc21 | 6%[11.4 µM]
O=C1CCCN1c1cc(Cl)ccc1Cl | 2%
CCN(CC)C(=O)c1ccc2c(c1)N(Cc1ccccc1)C(=O)CS2=O (stereo not drawn) | 0%
O=C(Nc1cccc(F)c1)C1CCCN1S(=O)(=O)c1cccc2cccnc12 (stereo not drawn) | -4%
O=C(OCN1C(=O)c2ccccc2C1=O)c1ccccc1 | 4%
CCc1ccc(C(=O)Nc2ccc(S(=O)(=O)Nc3nc(C)cc(C)n3)cc2)o1 | -5%
COc1cc(C(=O)Nc2ccc(N(C)C)cc2)cc(OC)c1OC | 0%
Brc1cccc(-c2nnc3n2CCC3)c1 | 1%
CCCOc1ccc(C(=O)c2nc3c(n2O)CCCC3)cc1 | -2%
Cc1ccc(C(=O)C(C)OC(=O)C2CC(=O)N(C3CCCCC3)C2)cc1 (stereo not drawn) | -3%
Cc1occc1-c1nnc(SCC(=O)N2CCOCC2)n1CCc1ccccc1 | 10%
O=c1c2c(nc3c(-c4ccc(Cl)cc4)c[nH]n13)CCCC2 | 6.3µM*
CC1=NCC[N@@+]1(CCc1ccccc1)Cc1ccccc1 | 8%[11.4 µM]
CC(=O)Nc1ccccc1Sc1ccccc1 | 4%
O=C(CN1CCc2ccccc21)NC(=O)NCc1ccco1 | -9%
Cc1cccc(-n2c(SCC(=O)NCc3ccco3)nnc2-c2ccco2)c1 | -1%
COC(=O)c1ccc(NS(=O)(=O)N(C)C)cc1 | -13%
CCC(C(=O)NC1CCCC1)N(C(=O)Cn1nnc(-c2ccc(C)o2)n1)c1cnc2ccccc2c1 (stereo not drawn) | 3%
Cc1ccc(NCc2nc3ccccc3n2C)cc1 | -7%
CCCOC(=O)C1=C(C)NC2=C(C(=O)CCC2)C1c1cc(OC)ccc1OC (stereo not drawn) | -11%
CCCC[C@@H]1C[C@H]1C(NC(=O)c1cccs1)c1ccccc1C(F)(F)F (stereo partly drawn) | -1%
Clc1ccc2nc(SCc3nnc(-c4ccccc4)o3)[nH]c2c1 | -5%
O=C(COc1ccc(Cl)cc1Cl)Nc1ccc2nc3n(c(=O)c2c1)CCCC3 | 0%
COc1ccc2nc3c(c([Si](C)(C)C(C)(C)C)c2c1)Cn1c-3cccc1=O | ?
CC12CN3CC(C)(CN(C1)C3c1cc3ccccc3[nH]1)C2=O (stereo not drawn) | 1%
O=C(COC(=O)C1CCC1)NCc1ccccc1Cl | -3%

Additional structures follow.
SMILES | HSD17B inhib
COc1ccc(CN2CC(C(=O)NCCN3CCN(c4ccccc4F)CC3)CC2=O)cc1 (stereo not drawn) | 11%
S=C(S)O[C@@H]1C[C@@H]2C[C@H]1[C@@H]1CCC[C@H]21 | ?
N#Cc1cc2c(nc1SCc1cccnc1)CCCCC2 | -9%
O=C1C2C3C=CC(C3)C2C(=O)N1c1ncn[nH]1 (stereo not drawn) | 7%
OC(c1ccccc1)C1CN(Cc2ccccc2)CCC1(O)c1ccccc1 (stereo not drawn) | 5%
O=C(COc1ccc(Cl)cc1Cl)N1CCCCCC1 | -2%
O=C1C2C3c4ccccc4C(c4ccccc43)C2C(=O)N1CN1CCOCC1 (stereo not drawn) | -4%
CC(=O)NS(=O)(=O)c1ccc(NC(=O)CCC2CCCC2)cc1 | 4%
Cc1cc(C(=O)CSc2nc3ccccc3c(=O)n2C)c(C)n1Cc1ccc2c(c1)OCO2 | 6%
Cc1ccc(CCNC(=O)CN2C(=O)COc3ccccc32)cc1 | 3%
CCCCNC(=O)Cn1cnc2sc(C(=O)OCC)c(C)c2c1=O | -4%
Clc1ccc(/C=C\c2nc(Cl)c(-c3ccc(Cl)cc3)c(Cl)n2)cc1 | ?
O=C(Nc1ccc(N2CCOCC2)cc1)c1ccc(S(=O)(=O)N2CCCCC2)cc1 | 3%
CCc1noc(C)c1C(=O)NCCc1ccc(OC)c(OC)c1 | 13%
CCOC(=O)c1ccc(NC(=O)c2ccc(NS(C)(=O)=O)cc2)cc1 | 10%
COc1ccc(C(=O)N2CCC3(CCN(Cc4ccc(C#N)cc4)CC3)CC2)cc1 | 7%
CC1CCCCC1NC(=O)CSc1nnc(-c2ccccc2)n1N (stereo not drawn) | 1%
Cc1ccc(OCC(=O)Nc2cccc(-c3nnc(-c4ccccc4)o3)c2)cc1 | -17%
Cc1noc(C)c1COC(=O)C1COc2ccccc2O1 (stereo not drawn) | 5%
CO[C@H]1[C@H](O[C@H]2O[C@@H](C)[C@@H](O[C@@H]3C[C@](C)(O)[C@H](OC(=O)CC(C)C)[C@H](C)O3)[C@@H](N(C)C)[C@@H]2O)[C@@H](CC=O)C[C@@H](C)[C@@H](O)/C=C\C=C/C[C@@H](C)OC(=O)C[C@H]1OC(C)=O | 4%[25.6 µM]
CCNC(=O)CN(c1ccc(CC)cc1)S(C)(=O)=O | 0%
CCOC(=O)C1=C(C)NC2=C(C(=O)CCC2)C1c1cc(OC)ccc1OC (stereo not drawn) | -1%
Cc1ccc(S(=O)(=O)Cn2nnnc2C(CC(C)C)N2CCN(C(=O)c3ccco3)CC2)cc1 (stereo not drawn) | -11%
Cc1nc(NC(=O)c2ccco2)sc1C(=O)Nc1ccc(Br)cc1 | -6%
CCN(CC)CCNC(=O)CCCCn1c(=S)[nH]c2c([nH]c3ccc(OC)cc32)c1=O | 25µM*
CCS(=O)(=O)N1CCC(C(=O)NCc2cccs2)CC1 | 13%
CCCn1c(C)cc(C(=O)CN2C(=O)c3ccccc3C2=O)c1C | 6%
CC1=CCC(C(C)(C)NC(=O)c2ccccc2)C/C1=N\O (stereo not drawn) | -6%
CCOC(=O)c1c(C)c(C(=O)NCCc2ccc(S(N)(=O)=O)cc2)c(C)n1CC | 4%
Cc1ccc(NC(=O)N2CCC(C(=O)NCC(C)C)CC2)cc1 | 8%
O=S(=O)(NCCNS(=O)(=O)c1ccccc1)c1ccccc1 | 8%
Cc1c(NS(=O)(=O)N2CCCC2)c(=O)n(-c2ccccc2)n1C | 3%
Cc1ccc(Cn2ccc(NC(=O)c3cc(-c4ccc5c(c4)OCO5)on3)n2)cc1 | ?
CC1=C(C(=O)OCC(C)C)C(c2ccc(F)cc2)NC(=O)N1 (stereo not drawn) | 0%
COc1ccc(/C=N/n2cnnc2SCc2ccccc2)cc1 | 3%
COC(=O)c1ccc(C(NC(=O)OCc2ccccc2)/C(=C/[C@@H](C)C(=O)Nc2ccccc2)c2cccnc2)cc1 (stereo partly drawn) | 5%
Cc1cc(OCC(=O)N2CCOCC2)cc2oc(=O)c3ccccc3c12 | 16µM*
O=C(c1cnccn1)N1CCC2(CC1)CCN(c1cccc(-c3ccccc3)c1)CC2 | -5%
CCOC(=O)N1CCN(C(=O)c2ccc(CS(=O)(=O)c3ccc(OC)cc3)o2)CC1 | 1%
O=C1C(c2[nH]c3ccccc3c2O)=Nc2ccccc21 | 32µM*
CC(=O)NCCNc1nc(-c2ccc(N(C)C)cc2)nc2ccccc12 | ?
CCCCCCCCN | 1%
CCOC(=O)c1cc(-c2ccccc2)sc1NC(=O)C(C)Sc1nnnn1C (stereo not drawn) | -6%
Cc1c(N=C/C=C2\N(C)c3ccccc3C2(C)C)c(=O)n(-c2ccccc2)n1C | -3%
O=C(C1CSC2(c3ccc(F)cc3)CCC(=O)N12)N1CCCCCC1 (stereo not drawn) | 3%
COCCNC(=O)C1CCN(S(=O)(=O)c2ccccc2)CC1 | 20%
CCN(C(=O)CSc1ncn[nH]1)c1cccc2ccccc12 | 0%
N#CC1=C(SCc2ccccc2)NC(=O)C(C#N)C12CCCC2 (stereo not drawn) | -2%
Cc1ccc(C)c(C(=O)c2c(C)nc3sccn23)c1 | 6%
O=C(Cc1ccc(F)cc1)N(c1ccc(F)cc1)C1C=CS(=O)(=O)C1 (stereo not drawn) | 6%
Cc1ccc2nsnc2c1S(=O)(=O)N(Cc1cc2cccc(C)c2[nH]c1=O)CC1CCCO1 (stereo not drawn) | -4%
COC(=O)c1cc(OC)c(OC)cc1NC(=O)CN1CCCCC1 | 3%
COc1ccc(Cl)cc1NC(=O)CSc1nncn1-c1cccnc1 | 1%
Cn1nnc(NC(=O)CSc2ncn[nH]2)n1 | -1%
Cc1ccc2nc(SCC(=O)NCC3CCCO3)c(C#N)cc2c1 (stereo not drawn) | -13%

Structural class: the compounds so far with a furan ring, fused or not
SMILES | HSD17B inhib
O=C(OCC(=O)N1CCN(C(=O)c2ccco2)CC1)c1ccccc1Cc1ccccc1 | -9%
COc1ccc(N2CCN(c3oc(-c4ccco4)nc3C#N)CC2)cc1 | ?
COc1ccc2c(CC(=O)OCC(=O)N3CCc4ccccc43)coc2c1 | -10%
CC(C)CC(c1nnnn1CCc1ccccc1)N1CCN(C(=O)c2ccco2)CC1 (stereo not drawn) | 6%
O=C(CN1C(=O)NC2(CCCc3ccccc32)C1=O)N1CCN(C(=O)c2ccco2)CC1 (stereo not drawn) | 13%
CCc1ccc(C(=O)Nc2ccc(S(=O)(=O)Nc3nc(C)cc(C)n3)cc2)o1 | -5%
Cc1occc1-c1nnc(SCC(=O)N2CCOCC2)n1CCc1ccccc1 | 10%
O=C(CN1CCc2ccccc21)NC(=O)NCc1ccco1 | -9%
Cc1cccc(-n2c(SCC(=O)NCc3ccco3)nnc2-c2ccco2)c1 | -1%
CCC(C(=O)NC1CCCC1)N(C(=O)Cn1nnc(-c2ccc(C)o2)n1)c1cnc2ccccc2c1 (stereo not drawn) | 3%
Cc1ccc(S(=O)(=O)Cn2nnnc2C(CC(C)C)N2CCN(C(=O)c3ccco3)CC2)cc1 (stereo not drawn) | -11%
Cc1nc(NC(=O)c2ccco2)sc1C(=O)Nc1ccc(Br)cc1 | -6%
CCOC(=O)N1CCN(C(=O)c2ccc(CS(=O)(=O)c3ccc(OC)cc3)o2)CC1 | 1%

Screens (PubChem)

Not all compounds are listed; the hit share may differ from the screen's.
